Screening data (PubChem BioAssay)
Sa helicase inh – S. aureus DNA helicase inhibition | 120,000 tested, 0.05% active | AID 485395 | inhibition, %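 (tested at about 80 µM)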 | purified S. aureus helicase, fluorescence unwinding assay; about half of the hits fall short of the stated cut;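 active = both duplicates at 50% or more, or one of them with a favoured structure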;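 also: 0% = mean of negative control wells and 100% = mean of positive control wells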
MgrA DNA FP – alters Staphylococcus aureus MgrA binding to DNA | fluorescence polarization | inhibition, %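 (about 10 µg/mL by stock and volumes)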 | 84,000 tested, 0.13% active | AID 602314;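 active = above 50% in either of two replicates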;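 also: 0% = protein plus DNA without compound and 100% = DNA alone without protein; higher means less MgrA bound to DNA so lower polarization; one replicate is shown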
The depositor's hits bear a star; . = not tested or not shown. Not all compounds are listed. The share of hits here may be higher or lower than overall.

SMILES	Sa helicase inh	MgrA DNA FP
O=C(CSc1nncs1)NC(=O)NC1CCCC1	0	.
COc1ccc2c(C)cc3nncn3c2c1	-10	-1.1
CC1CCCC(C)N1C(=O)COC(=O)c1ccccc1Oc1ccccc1 (configuration not stated)	-11	-1.3
O=C(O)C1CC=CCC1C(=O)Nc1ccccc1 (configuration not stated)	1	-1.2
CC(C)c1nc(NCCO)c2nnn(Cc3ccccc3)c2n1	10	-3.9
CCSc1nnc(CSc2ncccn2)n1-c1cccc(C(F)(F)F)c1	13	.
CC1CCN(S(=O)(=O)c2cc(C(=O)O)ccc2Cl)CC1	1	1.2
O=C(NCCCn1ccnc1)C1CC(c2cccc(Br)c2)=NO1 (configuration not stated)	9	.
S=c1[nH]nc2n1CCCCC2	-2	.
O=C(N=Nc1c(O)[nH]c2ccccc12)c1cccnc1	31	.
CSc1sc(C(=O)NN)c2c1C(O)CCC2 (configuration not stated)	.	3.4
N#CC(C(=O)Nc1ccccc1)=C1CCCCC1	-9	0.8
COc1ccccc1NC(=S)N(Cc1ccccc1)Cc1cccn1Cc1ccc(F)cc1Cl	-6	-0.7
CCCS(=O)(=O)c1c(S(=O)(=O)CCC)c2c(N)cccn2c1C(=O)c1ccc(C)cc1	10	-0.7
O=S(=O)(c1cccs1)N1CCN(c2nc3ccc(Cl)cc3s2)CC1	.	0.2
CCCCCCNc1nc(Nc2ccc(I)cc2)nc(OC)n1	-14	.
O=C(O)C1CC(O)CN1S(=O)(=O)c1cccc2nsnc12 (configuration not stated)	21	.
Cc1cc(C(=O)COC(=O)c2ccc3c(=O)n4c(nc3c2)CCC4)c(C)n1C	1	.
CC(Sc1nnnn1Cc1cccs1)C(=O)Nc1ccc(S(=O)(=O)N2CCCCC2)cc1 (configuration not stated)	-5	.
CCOC(=O)C1=C(C)N=c2s/c(=C\c3ccc(N(C)C)o3)c(=O)n2C1c1ccc(OC)cc1OC (configuration not stated)	.	2.5

The list goes on (5 carried over from the part before).
SMILES	Sa helicase inh	MgrA DNA FP
CCCCCCNc1nc(Nc2ccc(I)cc2)nc(OC)n1	-14	.
O=C(O)C1CC(O)CN1S(=O)(=O)c1cccc2nsnc12 (configuration not stated)	21	.
Cc1cc(C(=O)COC(=O)c2ccc3c(=O)n4c(nc3c2)CCC4)c(C)n1C	1	.
CC(Sc1nnnn1Cc1cccs1)C(=O)Nc1ccc(S(=O)(=O)N2CCCCC2)cc1 (configuration not stated)	-5	.
CCOC(=O)C1=C(C)N=c2s/c(=C\c3ccc(N(C)C)o3)c(=O)n2C1c1ccc(OC)cc1OC (configuration not stated)	.	2.5
CCOC(=O)c1c(CN(C)C)n(C)c2cc(Br)c(O)c(CN(C)C)c12	-6	.
CC(OC(=O)c1ccccc1)C(=O)Nc1ccc2c(c1)OCCO2 (configuration not stated)	1	.
O=C(O)CCc1nc2ccccc2oc1=O	-15	.
CC(=O)Nc1cccc(OCCCNC(=O)C2CCC2)c1	-2	.
N#CC(C#N)=C1C=C(c2ccc3c(c2)OCCO3)Oc2ccccc21	-40	.
c1ccc(-c2csc(N3CCOCC3)n2)cc1	.	-0.1
N#CCCn1cc(C(=O)CSc2n[nH]c(-c3ccc(Cl)cc3)n2)c2ccccc21	1	.
COC(=O)c1ccc(CNC(=O)c2cccc(F)c2)cc1	-10	.
COc1ccccc1N1CCN(C(=O)C(CC(C)C)NC(=O)C2CCCCC2)CC1 (configuration not stated)	12	.
O=C1c2ccccc2C(=O)N1N1C(=O)c2ccccc2C1=O	1	.
CN1C(=O)c2ccc(N)cc2C1=O	-32	.
CCOc1cc(C2C(C(=O)OCc3ccc(OC)cc3)=C(C)NC3=C2C(=O)CC(C)(C)C3)ccc1O (configuration not stated)	.	0.2
O=C(/C=C/c1ccco1)OCN1C(=O)c2ccccc2C1=O	-8	.
O=C1c2ccccc2C(=O)N1CN1C(=O)c2ccccc2C1=O	-13	.
Cc1ccc(C)c(N2CCN(CC(=O)c3ccc4c(c3)CCN4)CC2)c1	2	.
CCC(C)n1c(N)c(C#N)c2nc3ccccc3nc21 (configuration not stated)	-34	-2.3
CC(c1ccco1)N(C(=O)c1cccnc1Cl)c1ccccn1 (configuration not stated)	-14	5.5
Cc1ccc2occ(CC(=O)Nc3ccc(OC(F)F)cc3)c2c1	-19	.
C=CCn1c(SCc2ccc(Cl)cc2)nc2cc(C(=O)NCc3ccco3)ccc2c1=O	7	3.9
COc1ccc2[nH]cc(CCNC(=O)NC3CCCCC3)c2c1	9	.
CCc1ccc(NC(=O)c2cc3cc4ccc(OC)cc4nc3o2)cc1	-47	.
Cc1nc2ccccc2c(=O)n1/N=C/c1ccc2ncccc2c1	-4	-4.4
CC(C)NC(=O)n1cc(F)c(=O)[nH]c1=O	-4	-2.1
COc1ccc(CC(=O)OCC(=O)Nc2ccc3c(c2)OCCO3)cc1	9	.
Cn1c(CCCNC(=O)c2ccccc2)nc2ccccc21	-5	.
N#CN[n+]1ccc2ccccc2c1C(=O)c1ccc(Cl)cc1	.	-2.2
O=C(Nc1ccccc1)N1CCCC2CCCCC21 (configuration not stated)	9	.
O=C(c1cccc(NC(=O)N2CCSc3ncccc32)c1)N1CCC2(CC1)OCCO2	0	.
O=C(Nc1nc(=S)ss1)c1ccccc1Cl	24	.
COCc1cc(C)nc2sc(C(=O)N3CCN(c4ccccc4)CC3)c(N)c12	12	5.0
CCS(=O)(=O)c1nc2ccccc2n1CC(=O)N(C(C)C)C(C)C	11	.
COCC(C)n1c(SCc2cc(=O)n3cc(C)ccc3n2)nc2ccccc2c1=O (configuration not stated)	11	.
N#CCCN(Cc1ccccc1)S(=O)(=O)c1ccc(F)cc1	-15	.
NC(=O)c1ccc(NC(=O)COC(=O)c2ccccc2I)cc1	23	-4.6
CC(C)(C)c1csc(CS(=O)(=O)c2cccs2)n1	.	-2.2
CCOC(=O)c1ccc(-n2sc3ccccc3c2=O)cc1	-10	.
Cc1ccc(COC(=O)c2ccc3c(c2)C(=O)N(CCCN2CCOCC2)C3=O)cc1	-2	.
COc1cc2[nH]c(=S)nc(NCCCOC(C)C)c2cc1OC	39	.
Cc1c(C(=O)N2CCN(c3cccc(C(F)(F)F)c3)CC2)oc2ccccc12	0	0.4
O=S(=O)(c1ccccc1)c1cc2ccccc2oc1=Nc1ccccc1	8	-2.5
CC(=O)Oc1ccc2c(c1C)CCCC2	8	0.7
Cc1nc(C)c(S(=O)(=O)NCc2c(-c3ccccc3)noc2C)s1	.	-2.9
NC(=O)C1CCN(S(=O)(=O)Cc2ccc(Cl)cc2)CC1	.	0.8
COc1ccc(CCN(Cc2nc(-c3ccccc3)no2)Cc2nc(-c3ccccc3)no2)cc1OC	2	.
O=C(Nc1nccs1)c1cc(=O)c2ccccc2o1	23	.
O=C(CC1OCCN(Cc2ccccc2)C1=O)Nc1ccc2c(c1)OCCO2 (configuration not stated)	8	-3.4
COCCn1c(C)cc(C(=O)COC(=O)c2cccc(O)c2)c1C	-10	.
CN1C(=O)c2ccccc2N2C(=O)CCC12C(=O)OCc1ccccc1F (configuration not stated)	2	.
O=C(N1CCN(CCO)CC1)C(F)(F)C(F)(F)C(F)(F)C(F)(F)F	5	3.8
OCCn1c(SCCOc2ccc(Cl)cc2)nc2ccccc21	.	-0.4
O=C(NC1=NCCS1)c1cc(-c2ccc3c(c2)OCO3)nc2c1cnn2Cc1ccc(Cl)cc1	7	.
CCN(C(=O)CSC1=NCCS1)c1ccccc1	13	-4.2
O=C(Nc1nnc(C2CC2)s1)C(c1ccccc1)c1ccccc1	-22	2.3
CC(C)NC(=O)Cn1nc(Cc2ccncc2)c2ccccc2c1=O	1	0.1
O=C(Cc1cn2ccsc2n1)N/N=C/c1ccc(N2CCCCC2)cc1	1	.
CC1=C(C(=O)Nc2ccc(C(=O)NCC3COCCO3)cc2)SCCO1 (configuration not stated)	28	.
Cc1cc(Nc2ccc(O)cc2)n2c(nc3ccccc32)c1C#N	0	0.7
CCOC(=O)N1CCN(Cc2sccc2C)CC1	15	-2.4
Cc1n[nH]c(C)c1C12CC3CC(CC(C3)C1)C2	1	-2.2
CC12CC(NC(=O)N1c1ccc(C(=O)NCc3ccccc3)cc1)c1ccccc1O2 (configuration not stated)	8	0.0
(more compounds)
SMILES	Sa helicase inh	MgrA DNA FP
Cn1c(SCc2cc(=O)n3ccsc3n2)nnc1C1CC1	11	2.2
CCc1cccc(NC(=O)c2cc3cc4ccc(C)cc4nc3s2)c1	10	0.7
O=C(Nc1ccccc1SCC(O)Cn1ccc2ccccc21)c1ccc(Cl)cc1 (configuration not stated)	.	-0.8
c1ccc(-c2nn3c(-c4ccccc4)nnc3s2)cc1	12	2.2
O=C(CSc1nnc(-c2sc3ccccc3c2Cl)o1)N1CCN(C(=O)c2ccco2)CC1	20	.
CNC(=O)CSc1cn(CC(=O)N(C(C)C)C(C)C)c2ccccc12	-4	.
O=C(CCOc1ccccc1)NCCc1nc2ccccc2[nH]1	12	.
Cc1ccc(-n2nnc3c(sc4nc(C)cc(C)c43)c2=O)cc1	-6	1.0
CCN1C(=O)/C(=C/c2ccc3c(c2)OCO3)OC1=S	14	0.8
O=C(/C=C/c1c(Cl)nc2ccccn12)OCC1CCCO1 (configuration not stated)	3	.
CCC(C)OC(=O)C1=C(C)NC2=C(C(=O)CC(c3ccc(OC)cc3)C2)C1c1ccc(OC(C)=O)cc1 (configuration not stated)	.	-3.5
COc1cc(C(=O)N=C2C(C)=CC(=O)C=C2C)cc(OC)c1OC	1	28
O=C(O)CCCSc1nc2ccccc2[nH]1	-8	-2.0
N#Cc1ccccc1CO/N=C/c1ccc(N2CCOCC2)cc1	-5	.
CCOC(=O)C1C(=O)C=C(N2CCOCC2)CC1c1cccc(OC)c1 (configuration not stated)	-5	-2.0
CC(=O)Nc1ccc(/C=C2/C(=O)N=C(N)N2C)cc1	-13	3.2
O=C1NCC(O)=C1/C=N/Nc1ccccc1	-13	.
COc1ccc(C(=O)CNC2=NCCC2)cc1	7	.
O=C(NCc1ccncc1)c1ccc(-n2cccn2)cc1	.	-2.8
CS(=O)(=O)Nc1ccc2c(c1)C(=O)NC2=O	6	-0.7

Arranged by the number under MgrA DNA FP (lowest first): 6 from the list above.
| Structure | Sa helicase inh | MgrA DNA FP |
| --- | --- | --- |
| O=C(NCc1ccncc1)c1ccc(-n2cccn2)cc1 | . | -2.8 |
| CCOC(=O)C1C(=O)C=C(N2CCOCC2)CC1c1cccc(OC)c1 (configuration not stated) | -5 | -2.0 |
| CS(=O)(=O)Nc1ccc2c(c1)C(=O)NC2=O | 6 | -0.7 |
| Cc1ccc(-n2nnc3c(sc4nc(C)cc(C)c43)c2=O)cc1 | -6 | 1.0 |
| c1ccc(-c2nn3c(-c4ccccc4)nnc3s2)cc1 | 12 | 2.2 |
| CC(=O)Nc1ccc(/C=C2/C(=O)N=C(N)N2C)cc1 | -13 | 3.2 |

Continuation.
SMILES	Sa helicase inh	MgrA DNA FP
Cn1c(-c2ccccn2)[n+](C)c2ccccc21	-11	-0.2
O=C(COC(=O)[C@@H]1CCCN1C(=O)c1cccs1)Nc1ccccc1	-12	.
Cc1cc2nnc(SCCC(=O)O)n2c2ccccc12	-8	-1.9
CN(C)S(=O)(=O)c1ccc(Cl)c(C(=O)OCC(=O)C(C)(C)C)c1	-1	.
CC1CCC(C(C)C)C(NC(=S)Nc2cccc(F)c2)C1 (configuration not stated)	.	1.4
CC(=O)Nc1cccc(-c2nnco2)c1	.	-1.9
CCCNC1C2CC3CC(C2)CC1C3 (configuration not stated)	-21	.
CN1CCc2c(sc3nc(=S)[nH]c(N)c23)C1	20	7.0
CCCc1cc(NCCc2ccccc2)n2c(nc3ccccc32)c1C#N	3	2.4
Cn1c(=O)cc(SCC(=O)NCCN2CCN(c3cccc(Cl)c3)CC2)c2ccccc21	-20	.
c1ccc(-c2csc(N3CCc4ccccc43)n2)cc1	10	1.3
O=C(CCSc1ccccc1)Nc1nnc(-c2ccccc2)o1	-2	.
Cn1c(SCc2ccccc2)nnc1-c1ccc2nonc2c1	.	-0.5
CCOc1cc(C2Nc3ccccc3NC3=C2C(=O)CC(c2ccccc2)C3)ccc1OC(C)=O (configuration not stated)	.	-3.1
c1ccc2sc(COc3ncnc4sccc34)nc2c1	9	.
CCOC(=O)c1ccc(NC2CCCc3c2n(C)c2ccc(C)cc32)cc1 (configuration not stated)	8	3.9
COc1ccc(CC(=O)Nc2sccc2C#N)cc1	-16	-1.9
COC(=O)c1scc(S(=O)(=O)C(C)C)c1I	.	2.5
COc1ccc(CCN=Cc2ccc(Oc3nccc(C(F)(F)F)n3)cc2)cc1OC	.	1.1
Cc1nn(S(=O)(=O)N2CCOCC2)c(C)c1Cl	-4	2.1
COC(=O)c1sccc1NC(=O)C1CC(C)=C(C)CC1C(=O)O (configuration not stated)	.	-1.2
COc1ccc(OC)c(Nc2nc3cc(C)ccc3cc2C)c1	6	1.6
CN(C)S(=O)(=O)c1ccc(C(=O)N2CCN(Cc3nc4sc5c(c4c(=O)[nH]3)CCCC5)CC2)cc1	6	.
CCCCn1c(COc2ccc(OC)cc2)nc2cc(S(=O)(=O)N3CCOCC3)ccc21	-18	.
Cc1ccc(S(=O)(=O)CCc2nnc(NC(=O)CCCC(=O)Nc3cc(C)on3)s2)cc1	4	3.2
CCOC(=O)COc1cc(=O)n(CC)c2ccccc12	21	.
Cc1onc(-c2c(Cl)cccc2Cl)c1C(=O)N1CCN(c2ncnc3scc(-c4ccccc4)c23)CC1	.	0.7
CSc1nc(C)nc(Nc2cccc(C(F)(F)F)c2)c1C#N	8	.
CCOc1nc(Cl)nc(N2CCCCC2C)n1 (configuration not stated)	14	-1.1
O=C1/C(=C/c2ccc(Cl)cc2)COC/C1=C\c1ccc(Cl)cc1	.	-0.3
Cc1nc(-c2nnc(SCc3ccc(Cl)cc3)o2)cs1	.	0.6
Cc1ccc2c(cnn2C(=O)CCCC(=O)O)c1	3	-0.1
O=C(NCCCc1ccccc1)c1ccc(O)cc1	12	2.7
Cc1ccc(C2C(C#N)=C(N)Nc3oc(C)nc32)cc1 (configuration not stated)	9	0.8
O=C(NCc1ccncc1)c1cccc(S(=O)(=O)N2CCc3ccccc32)c1	-4	.
Nc1nc2ccc(NC(=O)c3ccccc3)cc2s1	.	2.7
